UUG fidelity: yeast start codon fidelity modulation; S. cerevisiae UUG-firefly luciferase reporter, luminescence/redox ratio; activity score, % at 18.7 µM; 0.13% of 350,000 active; AID 602363;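 active = replicate mean at a twofold rise or more, about +100% in these data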;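 also: firefly luciferase made from a UUG start codon reports start codon fidelity; reporter light over untreated wells divided by growth signal over untreated wells; some hits fall short of that in this replicate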
The depositor's hits bear a star. An excerpt, so the mix of outcomes need not match the whole.

SMILES	UUG fidelity
Cc1cccc(-c2ccc([C@@H]3[C@H]4CN(C(=O)c5ccncc5)CCCCN4[C@H]3CO)cc2)c1	-12.4
C[C@@H]1CN([C@H](C)CO)C(=O)c2cc(NC(=O)c3ccncc3)ccc2O[C@@H]1CN(C)S(=O)(=O)c1ccccc1	14.9
CN(C)CC#Cc1ccc([C@H]2[C@@H](CO)N3CCCCN(CC4CCOCC4)C[C@H]23)cc1	35.3
O=C(C1CCCC1)N1[C@@H](CO)[C@@H]2c3ccccc3NC[C@@H]21	-1.5
C[C@@H]1CN([C@H](C)CO)C(=O)Cc2cc(NC(=O)Nc3ccccc3)ccc2O[C@@H]1CN(C)C(=O)NC1CCCCC1	-9.4
C[C@@H]1CN([C@H](C)CO)C(=O)c2cc(NS(=O)(=O)c3cn(C)cn3)ccc2O[C@@H]1CN(C)Cc1ccncc1	-13.5
CCC(=O)N(C)C[C@@H]1[C@@H](c2ccccc2)[C@H](CO)N1Cc1cccnc1	-3.1
Cc1noc(C)c1NC(=O)N(C)C[C@@H]1Oc2c(NC(=O)c3ccc(-c4nccs4)cc3)cccc2C(=O)N([C@H](C)CO)C[C@H]1C	15.2
CCCC(=O)Nc1ccc2c(c1)C(=O)N(C)C[C@H](OC)[C@H](C)CN(CCc1ccccc1)[C@H](C)CO2	7.5
CCC(=O)Nc1ccc2c(c1)C(=O)N(C)C[C@H](OC)[C@@H](C)CN(C(=O)Cc1cccnc1)[C@H](C)CO2	-9.3
CCC(=O)N1CC[C@@H]2[C@H](CO)Nc3ccc(C#Cc4cccnc4)cc3[C@@H]21	-1.4
C[C@H]1CN([C@@H](C)CO)C(=O)c2cccc(NC(=O)Nc3cccc4ccccc34)c2O[C@H]1CN(C)Cc1ccc(Cl)c(Cl)c1	-8.0
COCC(=O)N1CC[C@H]2[C@H](CO)Nc3ccc(-c4ccc(C(=O)N(C)C)cc4)cc3[C@H]21	6.2
CO[C@H]1CN(C)C(=O)c2cc(NC(C)=O)ccc2OC[C@H](C)N(C(=O)C2CCOCC2)C[C@@H]1C	-14.1
OC[C@H]1[C@@H](c2ccc(-c3ccc(F)cc3)cc2)[C@H]2CN(Cc3cccnc3)CCCCN21	-12.9
C/C=C/c1ccc([C@H]2[C@@H](CO)N(C(=O)CC)[C@H]2CN(C)C(=O)C2CC2)cc1	16.8
CC(C)NC(=O)N1[C@H](CO)[C@H](c2ccccc2)[C@H]1CNC(=O)CN(C)C	18.5
COc1ccc(CN(C)C[C@@H]2Oc3c(NC(=O)Nc4ccc(F)cc4)cccc3C(=O)N([C@@H](C)CO)C[C@@H]2C)cc1	-8.7
CCCNC(=O)N1C[C@@H](C)[C@@H](OC)CN(C)C(=O)c2cc(NS(=O)(=O)CC(F)(F)F)ccc2OC[C@H]1C	-4.8
CCCN1C[C@@H](C)[C@@H](OC)CN(C)C(=O)c2ccc(NC(=O)Nc3ccccc3F)cc2OC[C@@H]1C	-8.6
C[C@@H](O)C#Cc1ccc([C@H]2[C@@H](CO)N3CCCCN(S(=O)(=O)Cc4ccccc4)C[C@@H]23)cc1	4.5
CN(C)CCCNC(=O)C[C@@H]1CC[C@@H]2[C@@H](COc3ccc(NC(=O)c4ccccc4F)cc3C(=O)N2C)O1	-6.4
C[C@H](CO)N1C[C@H](C)[C@H](CN(C)Cc2ccc(O)cc2)OCc2ccccc2-c2ccccc2C1=O	-11.1
C[C@H](CO)N1C[C@H](C)[C@H](CN(C)Cc2ccc(C(=O)O)cc2)Oc2ccc(NC(=O)Nc3ccccc3)cc2CC1=O	14.0
COc1ccc(NC(=O)N(C)C[C@H]2OCc3ccccc3-c3c(n(C)c4ccccc34)C(=O)N([C@@H](C)CO)C[C@H]2C)cc1	7.9
CN1c2ccc(-c3ccc(F)cc3)cc2[C@H]2[C@H](CCN2C(=O)c2ccncc2)[C@@H]1CO	8.6
CN1c2ccc(-c3cccc(C#N)c3)cc2[C@H]2[C@H](CCN2S(=O)(=O)c2ccc(F)cc2)[C@@H]1CO	-22.6
Cc1ccc(S(=O)(=O)Nc2ccc3c(c2)CC(=O)N([C@H](C)CO)C[C@@H](C)[C@H](CN(C)CC2CCCCC2)O3)cc1	-5.4
CC(=O)N1[C@H](CNC(=O)C2CC2)[C@H](c2ccc(-c3ccc(F)cc3)cc2)[C@@H]1CO	-4.0
Cn1cnc(S(=O)(=O)N2C[C@@H](O)COC[C@@H]3O[C@H](CC(=O)NCc4ccc(F)cc4)CC[C@H]32)c1	-7.0

Arranged by the number under UUG fidelity (rising): some entries from above
| smiles | UUG fidelity |
| --- | --- |
| COc1ccc(CN(C)C[C@@H]2Oc3c(NC(=O)Nc4ccc(F)cc4)cccc3C(=O)N([C@@H](C)CO)C[C@@H]2C)cc1 | -8.7 |
| CCCN1C[C@@H](C)[C@@H](OC)CN(C)C(=O)c2ccc(NC(=O)Nc3ccccc3F)cc2OC[C@@H]1C | -8.6 |
| CCCNC(=O)N1C[C@@H](C)[C@@H](OC)CN(C)C(=O)c2cc(NS(=O)(=O)CC(F)(F)F)ccc2OC[C@H]1C | -4.8 |
| CN1c2ccc(-c3ccc(F)cc3)cc2[C@H]2[C@H](CCN2C(=O)c2ccncc2)[C@@H]1CO | 8.6 |
| CC(C)NC(=O)N1[C@H](CO)[C@H](c2ccccc2)[C@H]1CNC(=O)CN(C)C | 18.5 |

(cont.)
SMILES	UUG fidelity
CCC(=O)N1[C@H](CN(CC)C(=O)c2cccc(F)c2)[C@H](c2ccccc2)[C@@H]1CO	-0.4
COCC(=O)N(C)C[C@H]1[C@H](c2ccccc2)[C@H](CO)N1C(=O)Cc1cccnc1	-8.4
O=C(c1cccc(F)c1)N1C[C@H]2[C@@H](c3ccccc31)[C@@H](CO)N2C(=O)C1CC1	-3.6
CC(C)CC#Cc1ccc([C@H]2[C@@H](CO)N3CCCCN(C(=O)c4ccc5c(c4)OCO5)C[C@H]23)cc1	-6.5
N#Cc1ccc(-c2ccc3c(c2)[C@@H]2[C@@H](CCN2C(=O)c2ccncc2)[C@H](CO)N3)cc1	-5.4
COC(=O)C[C@H]1CC[C@@H]2[C@@H](COc3ccc(NC(=O)c4ccc(C(F)(F)F)cc4)cc3C(=O)N2C)O1	8.0
COc1ccc(S(=O)(=O)N(C)C[C@@H]2Oc3ccc(NC(=O)CCCN(C)C)cc3C(=O)N([C@H](C)CO)C[C@@H]2C)cc1	13.3
COCCNC(=O)C[C@@H]1CC[C@H]2[C@@H](COc3ccc(NC(=O)C4CCOCC4)cc3C(=O)N2C)O1	-6.5
O=C(C[C@@H]1CC[C@H]2[C@@H](COC[C@@H](O)CN2C(=O)C2CCCC2)O1)NCc1ccncc1	6.3
CO[C@@H]1CN(C)C(=O)c2ccc(NC(=O)C3CC3)cc2OC[C@@H](C)N(Cc2cccnc2)C[C@@H]1C	2.9
C[C@@H]1CN([C@@H](C)CO)C(=O)c2cc(NS(=O)(=O)c3ccccc3)ccc2O[C@@H]1CN(C)S(C)(=O)=O	-11.6
CC(=O)N1[C@H](CO)[C@H](c2ccc(-c3ccccc3)cc2)[C@H]1CNC(=O)C1CC1	1.9
CO[C@H]1CN(C)C(=O)c2cc(NS(C)(=O)=O)ccc2OC[C@H](C)N(S(C)(=O)=O)C[C@@H]1C	-7.1
COc1ccc(NC(=O)Nc2ccc3c(c2)CC(=O)N([C@H](C)CO)C[C@H](C)[C@@H](CN(C)Cc2ccncc2)O3)cc1	-0.6
CCC(=O)N1C[C@H](C)[C@H](OC)CN(C)C(=O)c2ccc(NC(=O)c3ccc(F)cc3)cc2OC[C@@H]1C	9.0
CN(C)CC#Cc1ccc([C@H]2[C@@H](CO)N3CCCCN(C(=O)Nc4ccccc4F)C[C@@H]23)cc1	14.6
C[C@@H]1CN([C@H](C)CO)C(=O)c2cc(NC(=O)Nc3ccc(C(F)(F)F)cc3)ccc2O[C@H]1CN(C)S(C)(=O)=O	10.1
C[C@@H]1CN([C@@H](C)CO)C(=O)Cc2cc(NS(C)(=O)=O)ccc2O[C@@H]1CN(C)C(=O)Nc1ccccc1	-8.1
C[C@H](CO)N1C[C@H](C)[C@H](CN(C)C(=O)Nc2ccc3c(c2)OCO3)Oc2c(NS(=O)(=O)c3cccs3)cccc2C1=O	10.5
CC(C)(O)C#Cc1ccc([C@H]2[C@H](CO)N3CCCCN(C(=O)c4ccncc4)C[C@@H]23)cc1	4.6
C[C@@H]1CN([C@@H](C)CO)C(=O)Cc2cc(NS(=O)(=O)c3cccs3)ccc2O[C@@H]1CN(C)C	6.5
C/C=C/c1ccc([C@@H]2[C@@H](CO)N(C(C)=O)[C@H]2CN(C(=O)COC)C(C)C)cc1	1.6
O=C(C[C@H]1CC[C@@H]2[C@H](COC[C@H](O)CN2Cc2cccc(C(F)(F)F)c2)O1)NCc1ccc(F)cc1	12.7
O=C(C[C@H]1CC[C@@H]2[C@H](COC[C@@H](O)CN2C(=O)c2ccccc2F)O1)N1CCCCC1	5.4
CO[C@H]1CN(C)C(=O)c2ccc(NC(=O)c3cc(C)on3)cc2OC[C@@H](C)N(C(=O)C2CC2)C[C@H]1C	-7.3
CCC(=O)N(CC)C[C@H]1[C@H](c2ccc(-c3cccnc3)cc2)[C@@H](CO)N1C(C)=O	-8.7
C[C@H]1CN([C@@H](C)CO)C(=O)Cc2cc(NC(=O)C3CCCCC3)ccc2O[C@H]1CN(C)C(=O)Nc1ccc2c(c1)OCO2	4.8
C[C@H](CO)N1C[C@H](C)[C@H](CN(C)Cc2ccncc2)Oc2c(NC(=O)c3nc4ccccc4s3)cccc2C1=O	3.7
O=C(C[C@@H]1CC[C@@H]2[C@H](COC[C@@H](O)CN2C(=O)Nc2ccc(Cl)c(Cl)c2)O1)NCc1ccccc1	-5.8
CCCC(=O)Nc1ccc2c(c1)C(=O)N(C)C[C@@H](OC)[C@@H](C)CN(Cc1ccccn1)[C@@H](C)CO2	-16.7

3 neighbouring records out of the list so far, quoted:
SMILES	UUG fidelity
C[C@H](CO)N1C[C@H](C)[C@H](CN(C)Cc2ccncc2)Oc2c(NC(=O)c3nc4ccccc4s3)cccc2C1=O	3.7
O=C(C[C@@H]1CC[C@@H]2[C@H](COC[C@@H](O)CN2C(=O)Nc2ccc(Cl)c(Cl)c2)O1)NCc1ccccc1	-5.8
CCCC(=O)Nc1ccc2c(c1)C(=O)N(C)C[C@@H](OC)[C@@H](C)CN(Cc1ccccn1)[C@@H](C)CO2	-16.7

(list continues)
SMILES	UUG fidelity
C[C@@H]1CN([C@@H](C)CO)C(=O)c2ccccc2-c2ccccc2CO[C@@H]1CN(C)C(=O)Nc1cccc(F)c1	27.1
CCCNC(=O)N1C[C@H](O)COC[C@@H]2O[C@@H](CC(=O)N3CCCCC3)CC[C@H]21	5.4
CO[C@H]1CN(C)C(=O)c2ccc(NC(=O)C3CCC3)cc2OC[C@H](C)N(Cc2ccccn2)C[C@H]1C	-5.4
CO[C@H]1CN(C)C(=O)c2ccc(NC(=O)C3CCOCC3)cc2OC[C@@H](C)N(Cc2cccnc2)C[C@H]1C	0.7
C[C@@H](NC(=O)C[C@@H]1CC[C@H]2[C@@H](COC[C@@H](O)CN2C(=O)Nc2ccccc2)O1)c1ccccc1	35.3
COc1ccccc1C#Cc1ccc([C@H]2[C@H](CO)N3CCCCN(CCC(F)(F)F)C[C@@H]23)cc1	12.4
O=C(c1ccccc1)N1C[C@@H]2[C@H](c3ccccc31)[C@@H](CO)N2C(=O)Nc1ccccc1Cl	13.1
C[C@H]1CN([C@@H](C)CO)C(=O)CCCn2cc(nn2)CO[C@@H]1CN(C)S(=O)(=O)c1ccccc1	-0.1
CCC(=O)Nc1ccc2c(c1)OC[C@H](C)N(Cc1ccccc1)C[C@H](C)[C@@H](OC)CN(C)C2=O	9.1
C[C@H](CO)N1C[C@H](C)[C@@H](CN(C)S(=O)(=O)c2cn(C)cn2)Oc2ccc(NC(=O)CCC(F)(F)F)cc2C1=O	1.6
CCNC(=O)C[C@@H]1CC[C@@H]2[C@H](COC[C@@H](O)CN2C(=O)Nc2ccc(Cl)c(Cl)c2)O1	39.7
C[C@H](CO)N1C[C@H](C)[C@H](CN(C)C)Oc2ccc(NC(=O)CCCCCC(=O)Nc3ccccc3N)cc2CC1=O	1.2
O=C(c1ccccc1)N1C[C@H]2[C@@H](c3ccccc31)[C@H](CO)N2S(=O)(=O)c1ccccc1	-4.6
C[C@H]1CN([C@@H](C)CO)C(=O)c2cccc(NC(=O)c3cnccn3)c2O[C@@H]1CN(C)C(=O)Nc1ccccc1	1.4
COc1ccc(S(=O)(=O)N(C)C[C@@H]2Oc3c(NC(=O)c4cnccn4)cccc3C(=O)N([C@H](C)CO)C[C@@H]2C)cc1	4.0
Cc1ccc(-c2ccc3c(c2)O[C@@H](CN(C)Cc2ccc(F)cc2)[C@H](C)CN([C@@H](C)CO)S3(=O)=O)cc1	9.0
C[C@@H]1CN([C@H](C)CO)C(=O)c2cccc(NC(=O)C3CCOCC3)c2O[C@@H]1CN(C)S(=O)(=O)c1cn(C)cn1	-9.2
CC(C)NC(=O)N(C)C[C@H]1OCc2cnnn2CCCC(=O)N([C@@H](C)CO)C[C@@H]1C	0.7
COc1ccc(NC(=O)N(C)C[C@@H]2Oc3c(NC(=O)Nc4c(C)noc4C)cccc3C(=O)N([C@H](C)CO)C[C@H]2C)cc1	2.7
CC(C)NC(=O)N1C[C@H]2[C@@H](c3ccccc31)[C@H](CO)N2C(=O)c1ccccc1	-4.5
C[C@@H]1CN([C@@H](C)CO)C(=O)c2cc(NS(=O)(=O)c3ccc(F)cc3)ccc2O[C@@H]1CN(C)Cc1ccncc1	2.8
C[C@@H]1CN([C@@H](C)CO)C(=O)c2cccc(NC(=O)Nc3ccc(C(F)(F)F)cc3)c2O[C@@H]1CN(C)C(=O)Nc1ccc(F)cc1	0.1
COc1ccc(CN(C)C[C@H]2Oc3c(NC(=O)Nc4ccc(F)cc4)cccc3C(=O)N([C@H](C)CO)C[C@H]2C)cc1	-8.0
COc1ccc(S(=O)(=O)Nc2cccc3c2O[C@@H](CN(C)S(=O)(=O)c2c(C)noc2C)[C@H](C)CN([C@H](C)CO)C3=O)cc1	1.6
CCC(=O)N1C[C@@H]2[C@H](c3ccccc31)[C@H](CO)N2C(=O)Nc1ccccc1	24.9
